VCAM-1 down = inhibitors of TNFa-induced VCAM-1 surface display, cell-based, plate reader, pooled HUVEC, TNFa stimulus (AID 454) | inhibition, % at 5 µM | HUVEC TNFa-induced VCAM-1 surface immunofluorescence, plate reader; numbers were filed only for top-ranked candidate wells | 0.2% of 10,000 active;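 active means compound among top-ranked inhibitors of TNF-induced VCAM-1 adhesion protein staining, with the hit upheld by image or statistical review; inactive means the rest, including hits rejected on review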;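 further: 0% = TNFa with vehicle and 100% = cells without TNFa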
FPR ligand = binds the human formylpeptide receptor FPR. 0.74% of 24,000 active. inhibition, %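 (tested at 6.7 µM)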. AID 440. P21462. FPR-expressing cells, fluorescent ligand binding, flow cytometry;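 further: 0% = buffer wells and 100% = receptor blocker peptide wells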
Target sequence (P21462 whole entry, looked up): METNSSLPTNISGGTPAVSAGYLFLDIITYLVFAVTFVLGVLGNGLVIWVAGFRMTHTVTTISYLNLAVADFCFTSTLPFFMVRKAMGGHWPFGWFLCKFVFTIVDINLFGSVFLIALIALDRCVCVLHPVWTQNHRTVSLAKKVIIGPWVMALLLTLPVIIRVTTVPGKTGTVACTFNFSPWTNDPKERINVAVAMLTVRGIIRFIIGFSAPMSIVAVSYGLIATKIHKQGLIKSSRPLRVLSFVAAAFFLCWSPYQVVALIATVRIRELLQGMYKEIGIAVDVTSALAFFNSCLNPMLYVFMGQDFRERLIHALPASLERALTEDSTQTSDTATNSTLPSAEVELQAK
VCAM-1 augmentation = enhancers of VCAM-1 display on endothelial cells, imaging, high-content imaging, pooled HUVEC, TNFa stimulus (AID 457); Pooled HUVEC, TNFa-induced VCAM-1 immunofluorescence imaging; hits of this screen are not shown here; calls only; 0.2% of 10,000 active;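 active means a top-ranked rise in VCAM-1 staining upheld on image or statistical review; inactive means the rest, including candidates rejected on review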;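 further: compounds tested at 5 µM in the well; cells exposed to compound for 24 hours before fixing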
FPRL1 binder = human FPRL1 ligand, with FPR counter-screen; P25090; FPRL1-expressing cells, fluorescent ligand binding inhibition, flow cytometry; inhibition, %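 (tested at 6.7 µM)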; 0.3% of 24,000 active; AID 441;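 further: 0% = buffer alone and 100% = receptor blocker peptide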
Target sequence (P25090 whole entry, looked up): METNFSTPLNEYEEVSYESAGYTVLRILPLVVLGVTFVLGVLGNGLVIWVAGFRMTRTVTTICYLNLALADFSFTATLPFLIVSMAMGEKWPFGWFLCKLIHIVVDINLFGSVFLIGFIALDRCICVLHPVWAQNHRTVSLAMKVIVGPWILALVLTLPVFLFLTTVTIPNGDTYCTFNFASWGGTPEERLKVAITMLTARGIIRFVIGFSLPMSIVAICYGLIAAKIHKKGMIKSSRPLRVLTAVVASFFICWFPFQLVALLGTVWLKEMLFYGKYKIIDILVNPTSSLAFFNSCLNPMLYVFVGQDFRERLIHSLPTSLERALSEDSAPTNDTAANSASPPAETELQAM
VCAM-1 down imaging = inhibitors of TNFa-induced VCAM-1 surface display, imaging, high-content imaging, pooled HUVEC, TNFa stimulus (AID 456) | HUVEC TNFa-induced VCAM-1 surface expression, immunofluorescence imaging; numbers were filed only for top-ranked candidate wells | inhibition, % at 5 µM, or IC50 in µM where a hit was titrated | 0.2% of 10,000 active;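 active means top tenth filtered wells with inhibition above zero that passed visual or statistical confirmation; inactive means the rest, including hits rejected on review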;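 further: 0% = stimulated vehicle wells and 100% = unstimulated cells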
The depositor's hits bear a star; i = inactive; / = not tested or not shown.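 How the source made its calls, unless noted: active means mean above 30%; inconclusive means self-fluorescent; inactive means the rest.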

SMILES	VCAM-1 down	FPR ligand	VCAM-1 augmentation	FPRL1 binder	VCAM-1 down imaging
CCCCCn1c(CN(C)Cc2ccccc2)nc2c1c(=O)n(C)c(=O)n2C	i	17.0	i	7.6	i
CCOC(=O)C1CCN(C(=O)c2ccc(Cl)c(NC3=NC4CS(=O)(=O)CC4S3)c2)CC1 (stereo unspecified)	/	-2.5	/	-0.4	/
Cc1ccc(CNC(=O)CCNS(=O)(=O)c2ccc3c(c2)c(=O)n(C)c(=O)n3C)cc1	/	-7.8	/	4.1	/
COC(=O)c1cc(OC)c(OC)cc1NC(=O)CCC1CCCC1	i	18.3	i	-11.2	i
O=C(CCc1nc2ccccc2[nH]1)N1CCN(C(=O)c2ccco2)CC1	/	1.0	/	2.5	/
CCCCNC(=O)Nc1ccnn1C1CCCCC1	i	-1.9	i	-3.1	i
CCOC(=O)N1CCC(n2c(SCC(=O)NCCC3=CCCCC3)nc3ccccc3c2=O)CC1	/	14.1	/	5.4	/
COc1ccc(OC)c(NC2c3ncccc3C(=O)N2Cc2ccco2)c1 (stereo unspecified)	/	-7.3	/	-4.8	/
CCS(=O)(=O)NCc1cn2c(C)csc2n1	/	5.3	/	3.1	/
CCC(=O)N1CCc2cc(Br)cc(S(=O)(=O)N3CCN(c4ccccn4)CC3)c21	/	3.8	/	2.0	/
CC12COC3(C(=O)Nc4ccc(Cl)cn4)CC1CCC32C (stereo unspecified)	i	-11.0	i	-10.9	i
Cc1cc(C)cc(N(CC(=O)N2CCN(c3ccccc3)CC2)S(=O)(=O)c2c(C)noc2C)c1	/	-0.2	/	-1.5	/
O=C(CCn1c(=O)c2sccc2n(CC(=O)NCc2ccco2)c1=O)NCc1ccccc1	i	-3.8	i	8.9	i
CCCCNC(=O)CCSc1nc2nc(C)cc(C)n2n1	/	5.4	/	5.9	/
COc1ccc(N2C(=O)C3CCCN3C2c2ccccc2)cc1 (stereo unspecified)	/	-0.3	/	-2.0	/
CC(C)c1ccc(NC(=O)CSc2nc3c(c(=O)[nH]2)CCC3)cc1	/	11.6	/	8.3	/
O=C(Nc1ccc2nc(-c3cccnc3)[nH]c2c1)c1ccco1	/	3.4	/	-3.5	/
CC1=C(C(N)=O)C(c2ccccc2)n2nc(-c3cccs3)nc2N1 (stereo unspecified)	/	-4.2	/	0.5	/
CC(C)CCNC(=O)CN(C)S(=O)(=O)c1cccc2nsnc12	/	0.7	/	-1.9	/
CCOc1cc(S(=O)(=O)NCc2ccccn2)c(C)cc1C	i	5.2	i	4.1	i

Reformatted with each value named: 2 of the compounds above
> O=C(Nc1ccc2nc(-c3cccnc3)[nH]c2c1)c1ccco1
- VCAM-1 down: /
- FPR ligand: 3.4
- VCAM-1 augmentation: /
- FPRL1 binder: -3.5
- VCAM-1 down imaging: /

> CC1=C(C(N)=O)C(c2ccccc2)n2nc(-c3cccs3)nc2N1 (stereo unspecified)
- VCAM-1 down: /
- FPR ligand: -4.2
- VCAM-1 augmentation: /
- FPRL1 binder: 0.5
- VCAM-1 down imaging: /

Further results follow:
SMILES	VCAM-1 down	FPR ligand	VCAM-1 augmentation	FPRL1 binder	VCAM-1 down imaging
COc1ccc(S(=O)(=O)NCCOc2ccccc2)cc1OC	i	0.0	i	-1.9	i
Fc1cccc2sc(N3CCOCC3)nc12	i	-1.0	i	-2.4	i
CC(=O)NC(CCS(C)(=O)=O)C(=O)N1CCc2ccccc21 (stereo unspecified)	/	2.2	/	1.5	/
Cc1c(C(=O)NCc2ccc3c(c2)OCO3)oc2ccc(S(=O)(=O)N3CCCCC3)cc12	/	-9.8	/	-8.9	/
N#CCCN1CCN(S(=O)(=O)c2ccc(S(=O)(=O)NCC3CCCO3)cc2)CC1 (stereo unspecified)	/	-4.3	/	-1.9	/
CCOC(=O)N1CCN(CC(O)c2ccc3c(c2)CCN3)CC1 (stereo unspecified)	/	4.5	/	-1.0	/
C[C@]12CC[C@@H]3c4ccc(OC(=O)c5ccccc5)cc4CC[C@H]3[C@@H]1CC[C@@H]2O	i	3.4	i	-4.6	i
COC(=O)CN1C(=O)C(C)=C(c2ccc(C)cc2)S1(=O)=O	/	-7.1	/	-3.2	/
O=C1c2cccnc2C(=O)N1Cc1cccs1	/	7.0	/	3.2	/
O=C(C1CCN(S(=O)(=O)c2cccc3nsnc23)CC1)N1CC=C(c2ccccc2)CC1	/	3.6	/	-5.0	/
CCC(=O)N1c2ccc(S(=O)(=O)CCC(=O)N3CCn4c3nc3ccccc34)cc2CC1C (stereo unspecified)	/	2.9	/	-0.9	/
Nc1nonc1-c1nc2ccccc2n1CCC(=O)O	/	-0.4	/	-9.6	/
O=C(Nc1cccnc1)Nc1ccc2c(c1)OCO2	i	3.2	i	1.6	i
O=C(O)c1ccccc1S(=O)(=O)NCC(O)COc1ccc(Br)cc1 (stereo unspecified)	i	5.8	i	-2.1	i
Cn1c(=O)c2c(nc(SCC(=O)N3CCCc4ccccc43)n2C)n(C)c1=O	i	9.3	i	7.3	i
CC1(C)CC(=O)C2=C(C1)NC(=O)CC2C(=O)NCc1ccc(F)cc1 (stereo unspecified)	i	-12.0	i	-5.7	i
COC(=O)c1ccc2c(c1)N(C)CCS2	/	-0.5	/	-2.3	/
O=C(Nc1ccc2c(c1)OCO2)C(c1ccc(Cl)cc1)N1CCN(C(=O)c2ccco2)CC1 (stereo unspecified)	i	9.3	i	8.1	i
O=C(CSc1nccn1-c1ccccc1)NCc1ccc2c(c1)OCO2	/	-1.6	/	-1.7	/
C=CCOC(=O)C1=C(C)NC(=O)NC1c1cn(-c2ccccc2)nc1-c1cccs1 (stereo unspecified)	i	-0.3	i	-1.7	i
S=c1sc2c(N3CCOCC3)ncnc2n1-c1ccccc1	/	-5.2	/	-0.6	/
COc1ccc(C2=NOC(C(=O)N3CCCCCC3)C2)cc1OC (stereo unspecified)	/	0.7	/	-2.1	/
CN(CCCNC(=O)c1cn(C)c2ccc(S(=O)(=O)N(C)C)cc2c1=O)c1ccccc1	i	-1.2	i	1.7	i
COC(=O)c1ccc(CSc2nc(C(F)(F)F)c3c(c2C#N)CCC3)o1	/	-1.4	/	-11.2	/
CCN1CCCC1CNC(=O)C1CCN(Cc2nc(-c3cccc(Br)c3)oc2C)CC1 (stereo unspecified)	/	-1.0	/	-6.3	/
CCCCOC(=O)C1=C(C)Nc2ncnn2C1c1cc(OC)ccc1OC (stereo unspecified)	/	1.0	/	-4.4	/
CCOC(=O)C1CCCN(C(=O)c2cn(CC)c3ccc(S(=O)(=O)N4CCCC4)cc3c2=O)C1 (stereo unspecified)	/	3.1	/	0.7	/
COCCCNC(=O)CS(=O)(=O)Cc1nc(-c2ccccc2C)oc1C	/	-10.1	/	-0.1	/
Cn1cccc1Cc1nnc(SCC(=O)Nc2ccc(F)cc2)n1-c1ccc(F)cc1	i	-1.0	i	-1.2	i
Cc1noc(C)c1CSc1ccccc1C(=O)N1CCN(c2ccccc2)CC1	i	0.9	i	-3.3	i
O=C(O)[C@@H](c1ccccc1)N1Cc2ccccc2C1=O	/	0.1	/	-7.2	/
COc1ccc(-c2nnc(SCC(=O)Nc3sc4c(c3C#N)CCC4)n2CC2CCCO2)cc1 (stereo unspecified)	i	5.4	i	-1.3	i
O=C(CC1Oc2ccccc2NC1=O)NCCc1ccccc1 (stereo unspecified)	/	-3.9	/	-7.1	/
Cn1c(=O)c2c3c(sc2n2c(SCC(=O)c4ccc(Cl)cc4)nnc12)COC(C)(C)C3	i	1.0	i	1.5	i
CCOC(=O)N1CCN(C(=O)c2cc3c(=O)[nH]c4ccccc4c3s2)CC1	/	1.5	/	-5.6	/
O=C(CCC1N=C2c3ccccc3N=C(SCc3ccccc3Cl)N2C1=O)NCc1ccco1 (stereo unspecified)	/	10.6	/	17.0	/
O=C(CN(Cc1ccc(F)cc1)C(=O)Cn1nnc2ccccc21)NCC1CCCO1 (stereo unspecified)	i	-0.4	i	1.3	i
COc1ccc(C(C)(C)C)cc1NC(=O)Nc1ccc2c(c1)OCO2	i	-9.1	i	-3.6	i
CCOC(=O)c1c(CN2CCCCC2)n(C)c2cc(Br)c(O)c(CN(C)C)c12	/	-1.7	/	10.9	/
CCc1ccccc1S(=O)(=O)Cc1ccc(C(=O)NCc2ccc3c(c2)OCO3)o1	/	9.6	/	-11.1	/
c1ccc(-c2oc3ncnc(NCCCn4ccnc4)c3c2-c2ccccc2)cc1	/	6.5	/	-3.2	/
O=C(Cn1c(=O)n(-c2ccc(F)cc2)c(=O)c2sccc21)N1CCCC1	/	2.1	/	5.2	/
CCn1c(SCC(=O)c2ccc3c(c2)OCCO3)nnc1-c1ccco1	i	-15.3	i	-12.3	i
O=C1CN(c2ccccc2F)C(=O)CN1c1ccccc1F	i	-7.9	i	-1.9	i
O=S(=O)(c1cccc2nsnc12)N1CCc2ccccc2C1	/	-1.9	/	1.7	/
Cc1noc(C)c1S(=O)(=O)N1CCC(C(=O)N2CCN(Cc3ccc4c(c3)OCO4)CC2)CC1	i	-3.0	i	-0.2	i
O=C(O)CCCc1ccccc1	i	1.5	i	6.6	i
O=C1N(c2ccccc2)C2CS(=O)(=O)CC2N1c1ccc(Br)cc1 (stereo unspecified)	i	-0.4	i	-7.1	i
CC(=O)OCC(=O)[C@@]1(O)[C@H](C)C[C@H]2[C@@H]3CCC4=CC(=O)C=C[C@]4(C)[C@@]3(F)[C@@H](O)C[C@@]21C	i	0.0	i	-6.0	i
Cc1ccccc1-c1nc(CN2CCC(C(=O)NC3CCN(Cc4ccccc4)CC3)CC2)c(C)o1	i	-2.4	i	-1.6	i

Of the compounds above, these contain a cyano group.
SMILES	VCAM-1 down	FPR ligand	VCAM-1 augmentation	FPRL1 binder	VCAM-1 down imaging
N#CCCN1CCN(S(=O)(=O)c2ccc(S(=O)(=O)NCC3CCCO3)cc2)CC1 (stereo unspecified)	/	-4.3	/	-1.9	/
COC(=O)c1ccc(CSc2nc(C(F)(F)F)c3c(c2C#N)CCC3)o1	/	-1.4	/	-11.2	/
COc1ccc(-c2nnc(SCC(=O)Nc3sc4c(c3C#N)CCC4)n2CC2CCCO2)cc1 (stereo unspecified)	i	5.4	i	-1.3	i

New compounds follow:
SMILES	VCAM-1 down	FPR ligand	VCAM-1 augmentation	FPRL1 binder	VCAM-1 down imaging
CCCOc1ccc(OC(=O)c2ccc(Br)o2)cc1	/	-10.1	/	0.8	/
O=C(NC1CCCCCC1)C1c2ccccc2C(=O)N1Cc1cccnc1 (stereo unspecified)	i	3.9	i	3.2	i
Cc1ccc(Cn2c(=N)c(C(=O)NCc3ccco3)cc3c(=O)n4ccccc4nc32)cc1	i	5.0	i	-1.0	i
COC(=O)CSc1nnc(CNC(=O)c2cc(OC)c(OC)c(OC)c2)n1C	/	2.0	/	-1.6	/
Cc1ccc(NC(=O)COC(=O)c2ccn(C)n2)cc1	i	13.4	i	1.1	i
O=C(OCCn1cncn1)c1cc2ccccc2oc1=O	/	3.8	/	-0.6	/
CCCCn1c(SCC(=O)NCc2ccccc2)nc2ccc(N3CCOCC3)cc2c1=O	i	-1.4	i	-0.8	i
Cc1ccccc1CS(=O)(=O)CCC(=O)NCc1ccccn1	/	4.4	/	2.5	/
COCCN(Cc1cc2cccc(C)c2[nH]c1=O)C(=O)c1ccccc1	i	10.4	i	4.1	i
Cc1ccc(S(=O)(=O)Cn2nnnc2C(C(C)C)N2CCN(C(=O)c3ccco3)CC2)cc1 (stereo unspecified)	i	-5.5	i	0.7	i
COc1cc(OC)cc(C(=O)NCCN2CCOCC2)c1	i	-0.5	i	3.3	i
Cc1cccn2c(=O)c(/C=N/O)c(N3CCCCC3)nc12	/	-7.9	/	-0.2	/
O=C1c2ccccc2C(Nc2ccc(-c3nc4ccccc4[nH]3)cc2)N1Cc1ccco1 (stereo unspecified)	i	-5.2	i	2.8	i
CCCC(=O)Nc1ccccc1-c1nnn(CC(=O)Nc2ccc(OCC)cc2)n1	i	-0.6	i	-0.7	i
COc1cc2c(cc1OC)C(C)N(C(=O)Cn1ncc3c1-c1ccccc1OC3)CC2 (stereo unspecified)	i	-2.2	i	-1.8	i
CCN(CC)C(=O)CSc1nc2cc3c(cc2c(=O)n1Cc1ccc2c(c1)OCO2)OCO3	/	7.8	/	4.0	/
CCOc1cccc(C2C(C(=O)c3ccc(C)o3)=C(O)C(=O)N2c2nccs2)c1 (stereo unspecified)	/	11.4	/	-5.5	/
Nc1nc2ccccc2n1/N=C/c1ccc(Br)cc1	i	1.3	i	-3.1	i
CC(=O)N1CCCc2cc(S(=O)(=O)CCC(=O)N3CCN(c4cccc(C)c4)C(C)C3)ccc21 (stereo unspecified)	/	4.0	/	7.1	/

From PubChem BioAssay

Not all compounds are listed. The share of hits here may be higher or lower than overall.
